Rango release inh = inhibitors of RanGTP-induced Rango-importin beta complex dissociation; O95149+P62826; Biochemical FRET Rango-importin beta, RanGTP-induced dissociation; Potency, µM (titrated, usually from 46.1 µM), inactives show top-dose activity change, negative = inhibition; 340,000 tested, 0.071% active; AID 540253; active means falling FRET ratio curve, often poorly fitted, with flat reads before Ran was added; inconclusive means other falling curves, or compound fluorescence or quenching; inactive means flat or rising ratio curve;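 note: potency is the fitted concentration of half-maximal effect; % of control where 0% means no effect; nearly all actives have a fitted effect of over 45% in size; -100% = wells without RanGTP and RCC1; the record marks most hits as doubtful in a second field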
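Two FRET readings bracket the reaction: one 5 min after compound meets Rango–importin beta, another 45 min after RanGTP-RCC1 (0.6 uM Ran, 0.2 uM RCC1, 2 mM GTP) is added. Only the second defines inhibition.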
GLA inh pH 4.5 = blocks human alpha-galactosidase A at pH 4.5 | P06280 | purified enzyme, 4-MU-alpha-Gal fluorescence, pH 4.5 | activity change, negative = inhibition, % at 105 µM | 230,000 tested, under 10 active | AID 1467; inconclusive = small, poorly fitted or top-dose-only inhibition, or a rising curve; inactive = flat fitted curve, though single readings scatter; no compound was filed as active;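 note: 0% = full activity with enzyme and -100% = basal without enzyme; dose as in the result columns while the protocol names 77 µM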
miR-21 reporter = miR-21 reporter, rising signal; HeLa miR-21 FLuc reporter, luciferase, 48 h; Potency, µM (doses to about 38.3 µM), without a hit: at the highest dose reporter change, positive = more light; 340,000 tested, under 10 active; AID 2288; active = well fitted rising curve with a large enough effect; inconclusive = small, poorly fitted or top-dose-only effect; inactive = no such curve, though single readings can be large or run the other way;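 note: % of control where 0% means no effect; miR-21 action dims this reporter so a rising signal means less miR-21 action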
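HeLa cells endogenously expressing miR-21, stably carrying CMV-driven firefly luciferase with a downstream miR-21 binding site, 2000 cells/well. Titrations up to approximately 40 uM, 48 hours; luciferase luminescence read.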
Rango complex inh = prevents formation of the Rango-importin beta complex | Rango CFP/YFP FRET sensor + importin beta, 45 min | Potency, µM (titrated, usually from 92.2 µM), for inactives: at the top dose inhibition of complex formation | 340,000 tested, 0.031% active | AID 540263; active = rising FRET ratio curve, often small or poorly fitted; inconclusive = mostly compound fluorescence or quenching in the first reads; inactive = flat curves in all reads;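 note: potency is the fitted concentration of half-maximal effect; 0% = DMSO wells and 100% = buffer wells lacking importin beta; nearly all actives have a fitted effect of over 15% in size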
Target sequence (Q14974 whole entry, looked up): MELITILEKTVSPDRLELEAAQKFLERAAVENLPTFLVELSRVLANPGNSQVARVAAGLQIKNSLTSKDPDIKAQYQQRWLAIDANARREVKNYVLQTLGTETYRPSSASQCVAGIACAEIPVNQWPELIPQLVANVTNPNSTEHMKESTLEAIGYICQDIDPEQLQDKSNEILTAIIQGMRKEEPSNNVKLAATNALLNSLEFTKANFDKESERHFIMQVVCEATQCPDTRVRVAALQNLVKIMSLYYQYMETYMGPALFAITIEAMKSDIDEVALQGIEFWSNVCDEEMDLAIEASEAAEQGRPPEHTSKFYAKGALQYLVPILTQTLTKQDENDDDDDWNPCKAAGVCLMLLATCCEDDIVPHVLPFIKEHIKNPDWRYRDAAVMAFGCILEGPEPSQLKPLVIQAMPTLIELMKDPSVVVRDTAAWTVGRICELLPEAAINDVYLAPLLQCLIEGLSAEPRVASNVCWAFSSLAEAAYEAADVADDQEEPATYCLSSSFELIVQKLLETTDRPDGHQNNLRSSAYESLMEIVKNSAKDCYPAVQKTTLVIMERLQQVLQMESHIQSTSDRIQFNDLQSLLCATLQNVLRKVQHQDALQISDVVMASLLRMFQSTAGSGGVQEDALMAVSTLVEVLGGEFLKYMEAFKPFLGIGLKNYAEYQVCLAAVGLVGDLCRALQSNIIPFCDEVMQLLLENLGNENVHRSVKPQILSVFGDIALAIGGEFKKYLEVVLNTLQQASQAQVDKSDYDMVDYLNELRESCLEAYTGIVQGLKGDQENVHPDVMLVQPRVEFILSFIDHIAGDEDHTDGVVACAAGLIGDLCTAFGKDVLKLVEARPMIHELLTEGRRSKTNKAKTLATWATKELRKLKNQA
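Inhibition scored from the CFP 486 nm/YFP 530 nm FRET ratio 45 min after adding 0.125 microM importin beta to 50 nM Rango biosensor preincubated 5 min with compound (room temperature, PBS with DTT, Tween-20, BSA). No-importin wells as positive control.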
Starred values were filed as active, the others as inactive; ? = inconclusive; / = no result given; [ ] = dose if it differs, or a comment. Not all compounds are listed; count on the stated rates, not on these rows.

Rango release inh	GLA inh pH 4.5	miR-21 reporter	Rango complex inh	molecule
7%	/	-4%	3.3%	COc1cccc(C(C(=O)NC2CCCC2)N(C(=O)CNC(=O)c2ccco2)c2cccnc2)c1 (stereo unspecified)
21%	5	0%	2.1%	CCSc1nnc(NC(=O)CSc2nc3c(c(=O)n2CCOC)SC(C)C3)s1 (stereo unspecified)
2%	-4	1%	-0.7%	Clc1ccc(SCCCCn2ccnc2)cc1
6%	4	-62%	1.0%	COc1cccc(C(=O)NCCn2ccc3ccccc32)c1
-14%	8	3%	1.8%	COc1ccccc1N1CCN(C(CNS(=O)(=O)c2ccc(C)cc2)c2cccnc2)CC1 (stereo unspecified)
-7%	/	3%	-3.4%	COc1cc(-c2c(NC(=O)c3ccco3)oc3c(C)cccc3c2=O)cc(OC)c1OC
2%	-2	-6%	2.7%	Oc1ccc(-c2n[nH]c(=S)n2Cc2ccccc2)cc1
-4%	/	-60%	3.5%	O=C(Nc1nc2ccccc2s1)Nc1ccc(F)cc1F
-4%	/	/	-2.7%	O=C(O)c1ccc(-c2noc(-c3ccccc3Cl)n2)cc1
7%	5	0%	0.0%	O/N=C1\CC2(Cc3nonc31)OCCO2
32%	2	-11%	0.0%	O=C(Nc1ccccc1)/C(=C/c1ccccc1)NC(=O)c1ccco1
-5%	-4	?	0.5%	COC(=O)c1[nH]c2ccc(Br)cc2c1NC(=O)CN1CCN(C2CCCCC2)CC1
-13%	-2	?	-2.1%	O=[N+]([O-])c1cc(CN2CCN(c3cccc(C(F)(F)F)c3)CC2)c2cccnc2c1O
0%	-15	-1%	0.8%	O=C(CSc1oc(-c2cccs2)nc1S(=O)(=O)c1ccccc1)NC1CCCCC1
-6%	-1	-11%	4.9%	O=C(Nc1cccc(F)c1)/C(=C\c1cccnc1)NC(=O)c1cccs1
-12%	-2	-12%	1.0%	CCOc1ccccc1NC(=O)NCc1ccccc1F
4%	/	/	0.5%	COc1ccc(N2CCN(C(=O)COC(=O)CCS(=O)(=O)c3ccc(C)cc3)CC2)cc1
-5%	/	/	0.9%	COC(=O)N/N=C(C)/C=C/c1ccccc1
-2%	/	/	3.1%	O=C(NCCCc1ccccc1)c1cccc(NC(=O)C2CC2)c1
-24%	-7	-50%	-3.9%	CN1CCN(C(=O)c2cc(-c3ccccc3)on2)CC1
-5%	-7	-5%	-0.1%	CCCC(=O)c1c(C)c2ccccc2n1C
13%	-12	-29%	-0.9%	COC(=O)CSc1nc2cc(C)cc(C)c2cc1C#N
-2%	/	/	-1.5%	Nc1ncnc2c1ncn2[C@@H]1O[C@H](CNCc2ccc(-n3cccn3)cc2)[C@@H](O)[C@H]1O
-1%	/	/	-1.0%	O=S(=O)(CCNCc1ccccc1)NC1CCCCC1
1%	9	-6%	?	c1ccc2c(-c3nnc4n3CCCCC4)cc(-c3ccncc3)nc2c1

Whole records, quoted from the list. Screens in order: Rango release inh	GLA inh pH 4.5	miR-21 reporter	Rango complex inh
O=S(=O)(CCNCc1ccccc1)NC1CCCCC1 across the screens: -1%	/	/	-1.0%
c1ccc2c(-c3nnc4n3CCCCC4)cc(-c3ccncc3)nc2c1 across the screens: 1%	9	-6%	?
COc1ccc(N2CCN(C(=O)COC(=O)CCS(=O)(=O)c3ccc(C)cc3)CC2)cc1 across the screens: 4%	/	/	0.5%
CCCC(=O)c1c(C)c2ccccc2n1C across the screens: -5%	-7	-5%	-0.1%
CCSc1nnc(NC(=O)CSc2nc3c(c(=O)n2CCOC)SC(C)C3)s1 (stereo unspecified) across the screens: 21%	5	0%	2.1%

(continued)
Rango release inh	GLA inh pH 4.5	miR-21 reporter	Rango complex inh	molecule
16%	/	/	-2.5%	OCC[C@H]1C[C@@H](O)[C@H](O)[C@@]2(OCc3ccccc32)O1
-8%	-18	15%	-1.7%	CCCCc1ccc(NC(=O)c2ccc(N(C)S(C)(=O)=O)cc2)cc1
7%	3	4%	-0.3%	CC(C)C(NS(=O)(=O)c1ccc2c(c1)oc(=O)n2C)C(=O)N1CCN(Cc2ccccc2)CC1 (stereo unspecified)
8%	/	/	2.3%	COc1ccc(CN(C)S(=O)(=O)c2c(C)noc2C)cc1OC
3%	-2	-2%	1.9%	COc1n[nH]c2nncnc12
-3%	/	0%	-1.8%	O=C(O)c1ccc(CNC(=O)c2ccc3c(c2)C(=O)N(Cc2cccnc2)C3=O)cc1
-12%	/	/	1.2%	CC(C)(C)OC(=O)C[C@@H]1C/C=C\C[C@@H](CC(=O)N[C@H](CO)Cc2ccccc2)C(=O)N2CCC[C@@H]2COC1=O
0%	4	-20%	-5.6%	Cc1ccc(Nc2c3c(nc4ncnn24)CCC3)cc1
-18%	/	-1%	-0.1%	O=C(NCc1ccc(Cl)cc1)c1nccnc1CO
1%	-2	-1%	-3.4%	COc1ccc(S(=O)(=O)Nc2nc(C(F)(F)F)cs2)cc1
17%	/	0%	0.1%	CCCC(C(=O)NC(C)(C)C)N(CCN1CCOCC1)C(=O)CNS(=O)(=O)c1ccccc1 (stereo unspecified)
-11%	3	20%	2.3%	O=C(c1ccc(S(=O)(=O)c2ccccc2Cl)c([N+](=O)[O-])c1)N1CCN(Cc2ccccc2)CC1
18%	-1	-20%	-0.1%	Cc1cc(C)c(C#N)c(Sc2ccc(N)cc2)n1
-8%	/	14%	?	CN(c1ccccc1C(=O)Nc1cccc(Br)c1)S(=O)(=O)c1ccccc1
-14%	-6	-4%	-5.5%	CCN(CC)CCN(CC(=O)N(C1CCCCC1)C1CCCCC1)C(=O)c1cccnc1
9%	/	-6%	-4.2%	CSCC[C@H](NC(=O)c1cccs1)c1nnc2ccccn12
?	-9	-46%	?	N#C/C(=C/c1ccc(N2CCOCC2)o1)C(=O)NC1CCCCC1
-2%	-1	-19%	-0.2%	NC(=O)Nc1n[nH]c(-c2ccccc2)n1
10%	-2	-47%	-1.5%	O=C(Nc1cccc(Cl)c1)Nc1cccc(C(=O)O)c1
-1%	-9	-16%	0.6%	Cc1ccc(-c2ccc(/C=C3/NC(=O)NC3=O)o2)cc1[N+](=O)[O-]
26%	4	-58%	2.5%	CC(C)NS(=O)(=O)c1ccc(NC(=O)Cc2cccs2)cc1
13%	-7	-3%	0.8%	COc1ccc(CCNC(=O)c2ccc(CN3CCC(Cc4ccccc4)CC3)cc2)cc1OC
-9%	/	3%	1.5%	Cn1c(=O)c2c(nc(CN3CCN(C(c4ccccc4)c4ccccc4)CC3)n2CCCO)n(C)c1=O
-2%	-3	?	?	CCOc1cc(/C=C(/C#N)c2ccc(Cl)cc2)cc(Cl)c1OCC(=O)O
-7%	-5	3%	-5.0%	COc1cccc(OC)c1C(=O)Nc1cc(C)nn1-c1nc2ccccc2[nH]1
-9%	-1	-17%	-0.2%	COc1cccc(N2CC(O)=C(c3nc4ccccc4s3)C2=N)c1
1%	10	0%	-0.3%	CCOC(=O)[C@@H]1CCNC[C@@H]1c1ccccc1
1%	0	-4%	6.8%	C#CCOc1ccc(Br)cc1/C=N/O
0%	1	-1%	-1.0%	Cc1ccc(S(=O)(=O)N2CCC[C@H]2C(=O)OC(C)C(=O)Nc2ncc(Cl)cc2Cl)cc1 (stereo partly specified)
8%	1	1%	-0.9%	COc1ccccc1NC(=O)CSc1ncn[nH]1
1%	-17	-21%	4.3%	Cc1ccc(OCCCCn2ccnc2)c([N+](=O)[O-])c1
-17%	-6	-6%	?	Cc1cccc(C2CC(c3ccc(Br)cc3)Nc3nc(N)nn32)c1 (stereo unspecified)
-16%	2	16%	-4.8%	CCCn1nc(C(=O)N2CC(=O)Nc3ccccc32)c2ccccc2c1=O
-6%	-9	-15%	1.3%	COc1ccc(C(=O)n2nc(-c3ccc(Cl)cc3)nc2N)cc1OC
19%	-13	-7%	?	CN(/N=C/Cc1nnnn1-c1ccc(Cl)cc1)c1ccccc1
-6%	/	-4%	-1.8%	COc1c(C(=O)Nc2ccc(CN3CCOCC3)cc2)cc2ccccc2c1Br
19%	9	-1%	1.7%	O=c1cc(CSCc2ccc(Cl)cc2)[nH]c(=O)[nH]1
-5%	-3	-5%	-1.2%	COc1ccc(-c2nnn(CC(=O)N(CCCO)C(C(=O)NC3CCCC3)c3ccncc3)n2)cc1 (stereo unspecified)
0%	/	-2%	-0.3%	O=C(CC(NC(=O)OCc1ccccc1)C(=O)O)OCc1ccccc1 (stereo unspecified)
1%	-5	0%	-1.4%	COc1ccc(C(c2c(C)[nH]n(-c3ccccc3)c2=O)c2c(C)[nH]n(-c3ccccc3)c2=O)cc1OC
-3%	-4	-29%	2.3%	O=C(Nc1ccc2cn[nH]c2c1)c1ccc(Cl)c(S(=O)(=O)N2CCOCC2)c1
-1%	-14	/	-2.2%	Cc1cccc(C2=NN(c3ccc(Br)cc3)[C@@H](C(=O)N3CCOC3=O)[C@@H]2c2ccc([N+](=O)[O-])cc2)c1
9%	/	/	-0.1%	COc1ccc(OCC(=O)NC(=O)c2ccccc2OC)c([N+](=O)[O-])c1
-4%	-11	14%	-1.0%	O=C1CC(/C=C/c2ccncc2)=Nc2ccccc2N1
-11%	/	/	4.8%	O=C(NCCN1CCOCC1)c1ccc(NS(=O)(=O)c2cccc([N+](=O)[O-])c2)cc1
-15%	/	/	0.2%	CCN(c1ccccc1)S(=O)(=O)c1ccc(OC)c(NC(=O)Cc2ccccc2OC)c1
-10%	/	/	-0.1%	COc1ccc(Cc2nnc(SCC(=O)c3ccc4c(c3)NC(=O)CO4)o2)cc1
8%	/	-5%	-1.5%	NC(=O)CC(NC(=O)c1ccccc1)c1ccc(NC2CCCCCCC2)c([N+](=O)[O-])c1 (stereo unspecified)
-1%	-2	-7%	-5.3%	COc1ccc(-c2ccc(SCc3cccnc3)nn2)cc1OC
-16%	/	0%	1.2%	CCC(=O)OCc1cc(=O)oc2ccc3ccccc3c12

Further structures.
Rango release inh	GLA inh pH 4.5	miR-21 reporter	Rango complex inh	molecule
3%	3	-17%	2.9%	Cc1ccc(C(=O)NC(c2ccccc2)C(Cl)Cl)cc1 (stereo unspecified)
10%	0	-16%	-3.0%	COc1ccccc1C1Nc2cccc3cccc(c23)N1
5%	-4	-8%	1.2%	COC(=O)c1cc(S(=O)(=O)N2CCOCC2)ccc1Sc1ccccc1N
2%	1	-22%	1.9%	CC(/C=N/Nc1nc(C)cc(=O)[nH]1)=C\c1ccccc1
3%	8	1%	2.8%	COC(=O)Cc1ccc(NC(=S)N2CCN(c3ccc(F)cc3)CC2)cc1
-2%	/	/	0.5%	CCCN(C(=O)COC(=O)CSc1ccc(C(N)=O)cc1[N+](=O)[O-])C1CCS(=O)(=O)C1 (stereo unspecified)
12%	/	0%	0.5%	O=C(CNC(=O)C1CCCCC1)NCc1ccco1
-6%	/	/	?	O=S(=O)(O)c1cc(O)c(N=Nc2ccc(O)cc2O)c2ccccc12
1%	5	3%	8.3%	CNC(=S)N(Cc1ccc(OC)cc1)Cc1cc2cccc(C)c2[nH]c1=O
-7%	-12	-9%	-1.8%	CCn1c(CNc2ccccc2Cl)nnc1SCC(=O)NCc1ccccc1
1%	-20	5%	?	CC(=O)Oc1ccc(N(c2ccccc2)S(=O)(=O)c2ccc(C)cc2)cc1
2%	/	-4%	-1.1%	CSc1ccc(S(=O)(=O)NC2CC3CCC2C3)cc1 (stereo unspecified)
1%	2	-1%	2.3%	CC(C)CCc1c(O)nc(SCC(C)C)[nH]c1=O
4%	-6	3%	5.2%	Cc1cc(N2CCOCC2)nc2ccc(NC(=S)N3CCN(Cc4ccccc4)CC3)cc12
0%	10	-39%	0.5%	OCCNc1nc(SCc2ccccc2)nc2sc3c(c12)CCC3
25%	-12	3%	4.4%	CC(C)(C)NC(=O)Cn1c(SCC(=O)NC2CCCCC2)nc2ccccc21
-15%	-2[21.1 µM]	10%	-1.7%	COc1ccc(C(=O)N/N=C/c2ccc(OC)c(CN3CCc4cc(OC)c(OC)cc4C3C)c2)cc1 (stereo unspecified)
8%	4	-10%	-1.7%	C=CCn1c(SCC(=O)c2ccc(Cl)cc2)nnc1-c1ccc2c(c1)OCO2
